Assay outcomes: PubChem BioAssay, National Center for Advancing Translational Sciences (NCATS)
D2 ag: activates the human D2 dopamine receptor; DiscoveRx PathHunter D2 beta-arrestin, luminescence, 90 min; 100% = 57 uM dopamine signal; activation, % (test concentration not listed); AID 624465; 0.084% of 360,000 active; in the data active = activation above about 40%; inconclusive = about 15% to 40%; inactive = below about 15%; note: compound concentration not given in the record; the text of the record calls up to 30% inactive
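Agonist mode: compounds alone added to overnight-plated D2 PathHunter cells for 90 min at 37 C, with 57 uM final dopamine (EC100) defining full response. Beta-arrestin recruitment detected by chemiluminescent reagent, read after 1 h at ambient temperature.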
PINK1 expr mod: changes PINK1 expression; PINK1 immunofluorescence, high-content cytometry, 24 h; Potency, µM (series often up to 76.6 µM), without a hit: top-dose activation (PINK1 increase), most hits filed as activators; 0.2% of 410,000 active; AID 624263; active = well fitted activation curve with a large enough effect; inconclusive = small, poorly fitted or top-dose-only effect; inactive = flat fitted curve, though single readings scatter; cell line not stated here;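 note: potency is the fitted concentration of half-maximal effect; % of control where 0% means no effect; nearly all actives have a fitted effect of over 65% in size; a mitochondrial uncoupler was the plate control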
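Compound titrations (5 concentrations, 24 h) on a stable cell line; DMSO and CCCP controls. Endpoint: fixed-cell PINK1 immunofluorescence with mitochondrial, cell and nuclear markers, scanned by microplate cytometer.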
TRPML1 ag: activates the human TRPML1 channel; Q9GZU1; TRPML1-expressing cells, Ca2+ dye fluorescence, FDSS; host cell line not named in the record; reference of the full effect not given here; activation, % (test concentration not listed); 0.12% of 410,000 active; in the data active = activation above about 50%; inconclusive = about 30% to 50%; inactive = below about 30%; note: 0% is about no effect; the text of the record puts the active cut at 80%
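Cells: TRPML1-DL, 1X Tet inducer, ~16 h at 37 degrees C/5% CO2. Dye: ABD Ca8 no-wash + quencher, 45-90 min RT. Read: 10 s baseline, compound add, 110 s agonist phase; 54-4 EC80 (4uM final), 110 s antagonist phase.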
TRPML1 blocker: inhibitors of human TRPML1 channel. Q9GZU1. TRPML1-inducible cells, Ca2+ dye fluorescence, FDSS; active compounds read low; inhibition of EC80 agonist-evoked calcium signal. activity change, negative = inhibition, % (test concentration not listed). 0.02% of 390,000 active. AID 624415; in the data active means activity change below about -50%; inconclusive means about -30% to -50%; inactive means above about -30%;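 note: stimulus is agonist 54-4 at its EC80 concentration; % is set by controls: 0 for no effect and ±100 for the full control effect; compound concentration not given in the record; the text of the record puts the active cut at -80%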
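Tet-induced TRPML1-DL cells loaded with Ca8 no-wash calcium dye were read kinetically on FDSS. Compound addition was followed by EC80 agonist 54-4 (4 uM final); inhibition was read over 110 s.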
Six1-Eya2 blk: inhibitors of human Six1/Eya2 interaction; Q15475+O00167; AlphaScreen GST-Six1/His-Eya2 binding, biochemical; active compounds read low; control for the full effect not named in the record; activity change, % (concentration not given with the values); 0.56% of 360,000 active; AID 651725; in the data active = activity change below about -65%; inconclusive = about -30% to -65%; inactive = above about -30%; note: % is set by controls: 0 for no effect and ±100 for the full control effect
Target sequence (O00167 whole entry, looked up): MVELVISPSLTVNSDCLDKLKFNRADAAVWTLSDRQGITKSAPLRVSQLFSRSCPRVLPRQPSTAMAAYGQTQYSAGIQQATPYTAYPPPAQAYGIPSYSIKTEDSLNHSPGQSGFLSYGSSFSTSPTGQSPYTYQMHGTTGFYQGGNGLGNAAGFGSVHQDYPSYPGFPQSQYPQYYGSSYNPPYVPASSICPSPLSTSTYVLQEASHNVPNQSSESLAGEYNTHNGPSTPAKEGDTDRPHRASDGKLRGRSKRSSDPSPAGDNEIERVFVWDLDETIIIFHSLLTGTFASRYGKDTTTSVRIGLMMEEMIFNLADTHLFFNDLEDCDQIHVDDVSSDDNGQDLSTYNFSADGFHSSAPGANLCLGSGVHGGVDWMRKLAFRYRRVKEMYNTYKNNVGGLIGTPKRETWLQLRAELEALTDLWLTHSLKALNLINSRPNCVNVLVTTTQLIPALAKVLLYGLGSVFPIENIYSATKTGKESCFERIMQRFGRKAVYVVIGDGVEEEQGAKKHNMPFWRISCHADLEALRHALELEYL
Target sequence (Q15475 whole entry, looked up): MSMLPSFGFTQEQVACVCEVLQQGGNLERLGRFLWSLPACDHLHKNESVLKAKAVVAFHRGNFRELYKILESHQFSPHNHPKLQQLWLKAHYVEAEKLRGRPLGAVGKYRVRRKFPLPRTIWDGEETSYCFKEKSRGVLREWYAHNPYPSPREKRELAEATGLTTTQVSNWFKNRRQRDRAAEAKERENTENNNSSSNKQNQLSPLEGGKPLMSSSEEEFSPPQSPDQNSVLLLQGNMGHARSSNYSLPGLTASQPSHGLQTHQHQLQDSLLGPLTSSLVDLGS
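Six1/Eya2 binding was read as AlphaScreen signal after compounds were pinned into GST-Six1 plus His-tagged Eya2 (5X stock 250/500 nM) in pH 8.0 Tris/NaCl/TCEP buffer, beads added, then incubated 1 h, 37 C, dark.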
D2 PAM: positive allosteric modulators of human D2 dopamine receptor. potentiation, % (no concentration beside the values). AID 624464. 0.23% of 360,000 active. DiscoveRx D2 beta-arrestin cells, luminescence, 90 min; 100% = 57 uM dopamine signal. P14416; active = potentiation of 50% or more; inconclusive = 30% to 50%; inactive = 30% or less;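 note: compound concentration not given in the record; tested on top of an EC20 dose of dopamine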
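PathHunter D2 cells, attached overnight at 37 deg C, received compound in DMSO plus dopamine at EC20 (50 nM final) for 90 min at 37 deg C. Beta-arrestin recruitment was read as luminescence after 1 h with detection reagent at ambient temperature.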
* hit, by the source's call; ? = inconclusive; nt = no result given; [ ] = another dose, or the depositor's remark. This is a random part of the collection; 1% or so of the library scored in one or more.

SMILES	D2 ag	PINK1 expr mod	TRPML1 ag	TRPML1 blocker	Six1-Eya2 blk	D2 PAM
O=C(CN1CCN(Cc2ccccc2)CC1)Nc1ccc(S(=O)(=O)N2CCOCC2)cc1	-3.0	1.3%	0.3	30	-2	-24
Cc1ccccc1-c1nnc(SCc2ccccc2)o1	-2.2	-4.8%	0.9	14	49	-4
COc1ccc(/C=C/C(=O)OCC(=O)N(C)c2c(N)n(Cc3ccccc3)c(=O)[nH]c2=O)cc1OC	-1.4	2.6%	-0.8	-1	0	-7
CC(C)NC(=O)Cn1c(SCC(=O)N2CCc3ccccc3C2)nc2ccccc21	-0.8	-2.4%[38.3 µM]	2.6	-10	1	-2
CC(=O)OCC1OC(n2ccc(=O)[nH]c2=O)C(O)C1O (stereo unspecified)	-2.8	-0.5%	0.0	17	10	7
Cc1ccc(OCC(=O)N2CCN(S(=O)(=O)c3ccccc3)CC2)c([N+](=O)[O-])n1	-1.5	-0.2%	2.0	-7	3	0
O=C(Nc1ccc(F)cc1F)c1cc2nc(-c3ccco3)cc(C(F)(F)Cl)n2n1	nt	0.8%	-0.1	4	nt	nt
Cc1ccc(NC(=S)NC(NC(=O)c2ccccc2C)C(Cl)(Cl)Cl)c(C)c1 (stereo unspecified)	-0.5	?	3.5	11	-4	-3
C#CCOCCOCCOCCNc1nc(N2CCN(C(=O)Cn3cc(CCCN=C(N)N)nn3)CC2)nc(N2CCN(C(=O)[C@H](CCCCN)n3cc(CCC(=O)O)nn3)CC2)n1	-3.1	0.2%	0.0	-2	?	-7
COC(=O)c1cc(C)nc2c1c(=O)nc(SCc1cccc(C)c1)n2C1CC1	nt	0.4%	0.0	-10	nt	nt
Cn1c(=O)oc2cc(S(=O)(=O)N3CCC(C(=O)NCCc4ccccc4)CC3)ccc21	-1.1	3.3%	0.0	-5	-2	4
Cc1ccc(S(=O)(=O)N2Cc3ccccc3CC2C(=O)Nc2cc(C)on2)cc1 (stereo unspecified)	0.5	?	3.3	23	1	1
COc1cc(C)nc(OCCNS(=O)(=O)c2cc(C)ccc2C)n1	-1.8	0.7%	-0.6	-12	-7	-9
COc1cccc(C(=O)NCCN2CCC(n3c(=O)[nH]c4ccccc43)CC2)c1	nt	0.5%	-0.6	nt	-6	nt
CCCn1cc(S(=O)(=O)c2ccc(OC)cc2)c(=O)c2cc(OCC)ccc21	-0.9	-1.4%	1.8	31	-1	-6
CC(C)c1ccc(NC(=O)c2ccc3c(c2)C(=O)N(Cc2cccnc2)C3=O)cc1	2.1	3.6%	0.6	29	-2	-6
C[C@]12CC[C@@H]3c4ccc(O)cc4CC[C@H]3[C@@H]1CC[C@@H]2O	2.3	-0.4%	0.6	4	2	-14
CCc1ccccc1NC(=O)c1cc2ncc(Br)cn2n1	-1.3	0.3%[38.3 µM]	0.6	9	-1	-1
c1ccc(CNCc2ccc3c(c2)OCO3)nc1	-0.2	1.1%	0.0	-10	?	-5
CC1=C(C(=O)Nc2ccccc2C(=O)NC2CCCCC2C)SCCO1 (stereo unspecified)	-1.9	-0.5%	0.6	2	-18	3
Cn1c(SCC(=O)NCc2ccco2)nnc1-c1cccs1	1.9	-0.7%	-0.3	12	2	-4
Fc1ccccc1C1CC(c2ccco2)=Nc2ccccc2S1 (stereo unspecified)	-14	-0.8%	-0.1	-5	-14	-20
C[C@H](NC(=O)Nc1cccc(C(F)(F)F)c1)C(=O)O	0.9	1.2%[38.3 µM]	0.7	5	4	2
CC(=O)c1cccc(NC(=O)CCn2c(=O)oc3ccccc32)c1	-1.8	-1.6%	-0.2	1	4	-1
O=C(CN1C(=O)S/C(=C\C=C\c2ccccc2)C1=O)N1CCCCC1	-0.4	3.9%	0.1	3	-2	11

Next results follow:
SMILES	D2 ag	PINK1 expr mod	TRPML1 ag	TRPML1 blocker	Six1-Eya2 blk	D2 PAM
Nc1nnnn1/N=C\c1ccc(Cl)c([N+](=O)[O-])c1	3.4	0.1%	-0.4	6	-8	8
O=C(COC(=O)c1cc(-c2ccc(F)cc2)nc2ccccc12)NCC1CCCO1 (stereo unspecified)	4.5	2.6%	1.1	34	-9	7
O=C(Nc1ccc2c(c1)OCCO2)C1CC(c2ccc(F)cc2)=NO1 (stereo unspecified)	-0.2	-0.7%	-0.6	-21	-6	-2
COc1ccc(-c2nn(-c3ccccc3)cc2/C=C/C(=O)N2CCN(c3ccccn3)CC2)cc1	-2.9	-1.6%	1.5	28	?	0
CC[C@]12c3[nH]c4ccc(OC)cc4c3CCN1C(=O)C(CC(=O)NCc1ccc(OC)c(OC)c1)C[C@@H]2C(=O)N1CCN(C(=O)C2CC2)CC1 (stereo partly specified)	-3.0	-0.6%	-0.9	15	2	-1
N#C/C(=C\c1cc2ccccc2nc1N1CCCCC1)C(N)=O	-3.5	4.6%	-0.2	2	-21	-7
COc1ccc2[nH]cc(CCNC(=O)/C=C/[C@H]3O[C@@H](n4cc(C)c(=O)[nH]c4=O)C[C@@H]3O)c2c1	2.1	-0.1%	-0.5	-11	-2	-2
COc1ccccc1CCNC(=O)c1cc(C2CC2)nc2c1cnn2C(C)C	-6.1	8.4%	2.2	-7	3	1
COc1cc(SC)ccc1C(=O)N1CCCCCC1	1.3	0.0%	0.6	14	-7	11
CCCn1cc(S(=O)(=O)c2ccc(OC)cc2)c(=O)c2cc(F)c(N3CCCC(C)C3)cc21 (stereo unspecified)	nt	-1.1%	0.0	-5	nt	nt
Cc1cccc(NC(=O)c2ccc(NCCc3ccccc3)c([N+](=O)[O-])c2)c1	-1.9	14µM*	-0.2	79	-3	0
O=C(COC(=O)c1cccc(O)c1)Nc1ccc(S(=O)(=O)N2CCOCC2)cc1	5.2	0.8%	3.6	-19	-18	-1
CCc1ccc(C(=O)OCC(=O)Nc2c(C)n(C)n(-c3ccccc3)c2=O)cc1	-2.9	-0.4%	-0.6	65	11	-18
CCOc1ccc(N(CC(=O)NCCc2ccc(F)cc2)S(=O)(=O)c2ccccc2)cc1	-4.5	-0.9%	2.4	0	4	-9
Cc1ccc(-n2c(SCC(=O)N3CCOCC3)nnc2-c2cccnc2)cc1C	-0.8	-1.2%	0.1	-3	-1	16
C=CC(=O)Nc1cccc(Oc2ccnc(Nc3ccc(N4CCN(C)CC4)cc3)n2)c1	-1.6	-1.0%	-0.5	16	-20	-19
CCOc1ccc(NC(=O)CCn2cccc2)cc1	0.3	2.8%	1.0	-4	-13	-5
CCOc1ccc(N2C(=O)CC(SC(=NC)Nc3cccc(OC)c3)C2=O)cc1 (stereo unspecified)	5.0	-0.5%	-0.5	15	-4	-4
CCOC(=O)CC(NC(=O)Cc1cccs1)c1ccccc1Cl (stereo unspecified)	1.9	-0.9%	-0.4	-3	6	-2
O=C(Nc1nnc(-c2ccccc2Cl)o1)c1ccc(S(=O)(=O)N2CCCCCC2)cc1	-3.0	0.2%	11	25	-1	3
COc1ccc(NC(=O)C(C)N2c3cccc4cccc(c34)S2(=O)=O)cc1 (stereo unspecified)	-2.3	2.7%[38.3 µM]	0.1	4	4	1
CN1Cc2ccccc2N(CC(=O)NCc2ccccc2)C1=O	-2.5	0.5%	-0.1	8	1	-8
Cc1c(C)c(C)c(/C=[N+](/C)[O-])c(C)c1C	1.0	-0.8%	-0.5	-15	1	-1
Cc1nnc2ccc(N3CCCCC3)nn12	-2.8	1.1%	-1.1	-6	8	-6
CCN(CC(=O)Nc1ccc(OC)cc1)C(=O)CSCC(=O)Nc1ccc(C)cc1	-0.8	-2.9%	1.1	19	-6	-6

Single records, from the list above. Order of screens: D2 ag | PINK1 expr mod | TRPML1 ag | TRPML1 blocker | Six1-Eya2 blk | D2 PAM
Entry for CC[C@]12c3[nH]c4ccc(OC)cc4c3CCN1C(=O)C(CC(=O)NCc1ccc(OC)c(OC)c1)C[C@@H]2C(=O)N1CCN(C(=O)C2CC2)CC1 (stereo partly specified) = -3.0 | -0.6% | -0.9 | 15 | 2 | -1
Entry for COc1ccc2[nH]cc(CCNC(=O)/C=C/[C@H]3O[C@@H](n4cc(C)c(=O)[nH]c4=O)C[C@@H]3O)c2c1 = 2.1 | -0.1% | -0.5 | -11 | -2 | -2
Entry for CCOc1ccc(N2C(=O)CC(SC(=NC)Nc3cccc(OC)c3)C2=O)cc1 (stereo unspecified) = 5.0 | -0.5% | -0.5 | 15 | -4 | -4
Entry for COc1ccc(NC(=O)C(C)N2c3cccc4cccc(c34)S2(=O)=O)cc1 (stereo unspecified) = -2.3 | 2.7%[38.3 µM] | 0.1 | 4 | 4 | 1

(continued)
SMILES	D2 ag	PINK1 expr mod	TRPML1 ag	TRPML1 blocker	Six1-Eya2 blk	D2 PAM
CSc1ncc(C(=O)N2CCN(c3cccc(Cl)c3)CC2)c(C)n1	nt	3.1%	4.0	-7	nt	nt
COc1ccc(CCNC(=O)c2cc(=O)[nH]c3ccc(S(=O)(=O)N4CCCCC4C)cc23)cc1OC (stereo unspecified)	nt	-0.8%	1.2	-15	nt	nt
CC1(C)Cc2ccccc2-c2nc(NCCCO)n(-c3ccccc3)c(=O)c21	-2.5	5.9%	0.0	-9	-3	-4
O=C(CC1C(=O)NCCN1Cc1c(F)cccc1Cl)NCc1ccccc1 (stereo unspecified)	-1.8	-0.3%	0.3	2	4	4
CCOC(=O)C(=CNc1cc(C)nn1C(C)(C)C)C(=O)OCC	-0.3	-2.6%	-0.9	82	-12	7
Cc1cccc(NC(=O)c2cc(-c3ccccn3)nc3ccccc23)c1C	5.7	3.2%	2.2	55	-5	-5

Looked up by structure from the list above (3):
SMILES	D2 ag	PINK1 expr mod	TRPML1 ag	TRPML1 blocker	Six1-Eya2 blk	D2 PAM
CCOC(=O)C(=CNc1cc(C)nn1C(C)(C)C)C(=O)OCC	-0.3	-2.6%	-0.9	82	-12	7
COc1ccc(CCNC(=O)c2cc(=O)[nH]c3ccc(S(=O)(=O)N4CCCCC4C)cc23)cc1OC (stereo unspecified)	nt	-0.8%	1.2	-15	nt	nt
CC1(C)Cc2ccccc2-c2nc(NCCCO)n(-c3ccccc3)c(=O)c21	-2.5	5.9%	0.0	-9	-3	-4
